Screening data as filed in PubChem BioAssay.
GLA inh pH 4.5: qHTS Assay for Inhibitors of Human alpha-Galactosidase at pH 4.5. Alpha-galactosidase A (Homo sapiens), P06280. purified enzyme, 4-MU-alpha-Gal fluorescence, pH 4.5. activity change, negative = inhibition, % at 105 µM. 230,000 tested, under 10 active. AID 1467, 2008; inconclusive = small, poorly fitted or top-dose-only inhibition, or a rising curve; inactive = flat fitted curve, though single readings scatter; no compound was filed as active;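 also: 0% = full activity with enzyme and -100% = basal without enzyme; dose as in the result columns while the protocol names 77 µM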
Rango release inh: qHTS Assay for Inhibitors of RanGTP induced Rango (Ran-regulated importin-beta cargo) - Importin beta complex dissociation; Snurportin-1 (Homo sapiens) + GTP-binding nuclear protein Ran (Homo sapiens) + Importin …; Biochemical FRET Rango-importin beta, RanGTP-induced dissociation; Potency, µM (titrated, usually from 46.1 µM), for inactives: top-dose activity change, negative = inhibition; actives 0.071% (n = 340,000); AID 540253, 2011; active means falling FRET ratio curve, often poorly fitted, with flat reads before Ran was added; inconclusive means other falling curves, or compound fluorescence or quenching; inactive means flat or rising ratio curve;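 also: potency is read from the fitted curve at half-maximal effect; % of control where 0% means no effect; nearly all actives have a fitted effect of over 45% in size; -100% = wells without RanGTP and RCC1; the record marks most hits as doubtful in a second field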
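Compounds preincubate 5 min with complex of recombinant Rango and importin beta in PBS with 1 mM DTT. Ran (0.6 uM) loaded with 2 mM GTP plus 0.2 uM RCC1 starts dissociation; FRET is recorded 45 min later.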
miR-21 reporter: qHTS Assay for Modulators of miRNAs and/orActivators of miR-21. 340,000 tested, under 10 active. AID 2288, 2010. Potency, µM (doses to about 38.3 µM), without a hit: at the top dose reporter change, positive = more light. HeLa miR-21 FLuc reporter, luciferase, 48 h; active = well fitted rising curve with a large enough effect; inconclusive = small, poorly fitted or top-dose-only effect; inactive = no such curve, though single readings can be large or run the other way;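 also: % of control where 0% means no effect; miR-21 action dims this reporter so a rising signal means less miR-21 action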
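HeLa cells endogenously expressing miR-21, stably carrying CMV-driven firefly luciferase with a downstream miR-21 binding site, 2000 cells/well. Titrations up to approximately 40 uM, 48 hours; luciferase luminescence read.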
Rango complex inh: qHTS Assay for Inhibitors of Rango (Ran-regulated importin-beta cargo) - Importin beta complex formation; Importin subunit beta-1 (Homo sapiens), Q14974; Rango CFP/YFP FRET sensor + importin beta, 45 min; Potency, µM (highest dose often 92.2 µM), for inactives: top-dose inhibition of complex formation; actives 0.031% (n = 340,000); AID 540263, 2011; active = rising FRET ratio curve, often small or poorly fitted; inconclusive = mostly compound fluorescence or quenching in the first reads; inactive = flat curves in all reads;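 also: potency is read from the fitted curve at half-maximal effect; 0% = DMSO wells and 100% = buffer wells lacking importin beta; nearly all actives have a fitted effect of over 15% in size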
Target sequence (Q14974 whole entry, looked up): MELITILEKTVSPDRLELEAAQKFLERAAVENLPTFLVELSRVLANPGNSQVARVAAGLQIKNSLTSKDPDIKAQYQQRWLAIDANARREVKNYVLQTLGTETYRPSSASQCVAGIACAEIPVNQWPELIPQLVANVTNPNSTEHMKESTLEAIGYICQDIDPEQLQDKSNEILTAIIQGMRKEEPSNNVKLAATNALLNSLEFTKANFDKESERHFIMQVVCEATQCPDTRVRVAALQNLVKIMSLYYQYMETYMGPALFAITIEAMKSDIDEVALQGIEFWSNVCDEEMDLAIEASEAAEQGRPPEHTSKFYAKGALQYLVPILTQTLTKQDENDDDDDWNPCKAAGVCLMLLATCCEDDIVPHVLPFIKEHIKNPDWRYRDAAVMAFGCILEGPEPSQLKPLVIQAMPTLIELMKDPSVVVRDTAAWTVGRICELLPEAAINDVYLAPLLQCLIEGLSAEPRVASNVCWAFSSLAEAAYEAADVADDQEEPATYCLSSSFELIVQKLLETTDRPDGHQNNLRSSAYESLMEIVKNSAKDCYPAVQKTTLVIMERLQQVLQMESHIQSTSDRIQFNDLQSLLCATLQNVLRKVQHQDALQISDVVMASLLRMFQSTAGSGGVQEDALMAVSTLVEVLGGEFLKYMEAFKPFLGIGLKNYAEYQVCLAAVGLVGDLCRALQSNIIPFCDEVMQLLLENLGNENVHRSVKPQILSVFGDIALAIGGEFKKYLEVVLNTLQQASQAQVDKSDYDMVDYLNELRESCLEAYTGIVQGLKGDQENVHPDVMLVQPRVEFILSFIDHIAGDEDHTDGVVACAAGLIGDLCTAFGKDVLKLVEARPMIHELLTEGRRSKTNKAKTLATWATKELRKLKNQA
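FRET biosensor Rango (snurportin 1 IBB between N-terminal EYFP and C-terminal Cerulean), 50 nM in PBS/1 mM DTT/0.02% Tween-20/0.1% BSA, preincubated 5 min RT with compound; 0.125 microM importin beta added, 45 min RT, CFP/YFP FRET ratio read.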
* hit, by the source's call; ? = inconclusive; nt = no result given; & = joins results of further samples; [ ] = another dose, or the depositor's remark. This is a subset; count on the stated rates, not on these rows.

Sample of the layout:
Rango complex inh	Rango release inh	miR-21 reporter	GLA inh pH 4.5	smiles
-1.3%	-4%	4%	-2	Cc1ccc(-c2nnn(CC(=O)N(CC(=O)NC3CCCCC3)c3ccc(F)c(Cl)c3)n2)o1
-3.3%	-1%	-3%	nt	CN1CCN(c2nc3c(c(=O)n(C)c(=O)n3C)n2Cc2cccc(Br)c2)CC1

The list itself (from the top)
Rango complex inh	Rango release inh	miR-21 reporter	GLA inh pH 4.5	smiles
-1.3%	-4%	4%	-2	Cc1ccc(-c2nnn(CC(=O)N(CC(=O)NC3CCCCC3)c3ccc(F)c(Cl)c3)n2)o1
-3.3%	-1%	-3%	nt	CN1CCN(c2nc3c(c(=O)n(C)c(=O)n3C)n2Cc2cccc(Br)c2)CC1
-2.3%	8%	0%	-2	COC(=O)c1cc(NC(=O)CN2CCN(C(C)=O)CC2)cc(C(=O)OC)c1
-0.1%	1%	-3%	3	Cc1cccc(CNc2ncc(-c3cccc([N+](=O)[O-])c3)n2C)c1
-2.6%	-12%	-5%	3	Cc1ccc(-n2c(SCc3nc4ccccc4[nH]3)nnc2-c2ccncc2)cc1
3.8%	4%	0%	nt	CCNC(=O)NC1(C(=O)N2CCC(Cc3ccccc3)CC2)CCCCC1
11%	9%	-15%	-5	CC(C)(C)NC(=S)NCc1ccc2c(c1)OCO2
3.0%	-5%	nt	nt	COc1ccc(Cl)cc1C(=O)OCC(=O)N(CC(C)C)c1c(N)n(Cc2ccccc2)c(=O)[nH]c1=O
-1.8%	20%	0%	-7	CC1(C)[C@@H](O)CC[C@]2(C)C3C(O)C=C4[C@H]5C[C@@](C)(CO)CC[C@]5(C)CC[C@]4(C)[C@]3(C)CC[C@@H]12 (some centres undefined)
0.0%	5%	3%	4	COc1ccc(S(=O)(=O)N2CCSC2c2ccccc2)cc1 (centres undefined)
-3.9%	-3%	1%	nt	Cc1ccc(OCCC(=O)OCC(=O)Nc2ccccc2)cc1
-4.0%	21%	-8%	nt	COc1ccc(C2NC(=O)NC(C)=C2C(=O)OC2CCCCC2)cc1OC (centres undefined)
-0.3%	11%	-18%	-26	Cc1cc(-c2cccnc2)c(C#N)c(SCc2cccc(F)c2)n1
-0.8%	-1%	-6%	-8	COc1ccc2nc(SCC(=O)Nc3nonc3C)[nH]c2c1
6.1%	-18%	-2%	4	COc1ccc(-n2c(C)n[nH]c2=O)cc1

Six entries already listed, sorted by their value in miR-21 reporter, ascending.
Rango complex inh	Rango release inh	miR-21 reporter	GLA inh pH 4.5	smiles
11%	9%	-15%	-5	CC(C)(C)NC(=S)NCc1ccc2c(c1)OCO2
-0.8%	-1%	-6%	-8	COc1ccc2nc(SCC(=O)Nc3nonc3C)[nH]c2c1
-3.3%	-1%	-3%	nt	CN1CCN(c2nc3c(c(=O)n(C)c(=O)n3C)n2Cc2cccc(Br)c2)CC1
6.1%	-18%	-2%	4	COc1ccc(-n2c(C)n[nH]c2=O)cc1
-1.8%	20%	0%	-7	CC1(C)[C@@H](O)CC[C@]2(C)C3C(O)C=C4[C@H]5C[C@@](C)(CO)CC[C@]5(C)CC[C@]4(C)[C@]3(C)CC[C@@H]12 (some centres undefined)
-1.3%	-4%	4%	-2	Cc1ccc(-c2nnn(CC(=O)N(CC(=O)NC3CCCCC3)c3ccc(F)c(Cl)c3)n2)o1

Going on with the list.
Rango complex inh	Rango release inh	miR-21 reporter	GLA inh pH 4.5	smiles
0.6%	6%	-6%	nt	Oc1ccccc1N1CCN(CC(O)COC2CCCc3ccccc32)CC1 (centres undefined)
-0.7%	11%	-1%	-15	C=CCN1C=CC=C/C1=C1\SC(=S)N(C)C1=O
0.2%	12%	-12%	-9	CCCC(=O)Nc1ccc(C(=O)NCC(=O)OCC)cc1
5.9%	-5%	-10%	nt	COC(=O)c1cc2ccccc2n1S(=O)(=O)c1ccccc1
-0.6%	6%	-3%	nt	COc1cccc(C(C(=O)NC2CCCC2)N(CCC(C)C)C(=O)CCC(=O)Nc2cc(C)on2)c1 (centres undefined)
-1.1%	17%	2%	nt	Cc1ccccc1NC(=O)CCS(=O)(=O)c1ccc(Br)s1
-0.4%	-12%	10%	4	Cc1nnc(SCc2ccc(F)cc2)n1NC/C=C/c1ccccc1
-3.7%	-3%	0%	19	CCOC(=O)COc1ccc2c(c1)C(=O)CC1(CCCCC1)O2
?	-12%	-56%	13	COC(=O)CSc1nc(-c2cccs2)ccc1C#N
-5.5%	-4%	-7%&-2%	nt	COc1cccc(-c2nc(CS(=O)(=O)CC(=O)NCCCN3CCN(C)CC3)c(C)o2)c1
-2.9%	9%	nt	nt	Cc1cccc(NS(=O)(=O)c2cccc(C(=O)N3CCN(C/C=C/c4ccccc4)CC3)c2)c1
0.4%	-9%	-4%	0	CN(C)S(=O)(=O)c1ccc(C(=O)Nc2nnc(-c3ccco3)o2)cc1
1.8%	-5%	1%	nt	CCc1cc(=O)oc2cc(OCC(=O)NCC3CCC(C(=O)O)CC3)ccc12 (centres undefined)
3.1%	-1%	0%	-5	CCC1Oc2ccccc2N(CC(=O)NCCCN2CCN(Cc3ccccc3)CC2)C1=O (centres undefined)
-0.1%	-1%	-10%	9	CC(=O)c1cccc(NC(=O)C23CC4CC(C2)CC(n2cncn2)(C4)C3)c1

(next part)
Rango complex inh	Rango release inh	miR-21 reporter	GLA inh pH 4.5	smiles
2.0%	1%	-8%	-1	COCCNC(=O)C(OC(=O)CC1Sc2ccccc2NC1=O)c1ccccc1 (centres undefined)
nt	nt	1%	0	COc1ccc(OC)c(NC(=O)CSc2nc3ccccc3c3nc4ccccc4n23)c1
2.7%	0%	1%	-8	CC(C)(C)c1cc(P(=O)(c2ccccc2)c2ccccc2)ccc1O
2.3%	11%	-10%	2	Cc1cccc(C)c1NC(=O)CNC(=O)C(NC(=O)c1ccc(C(C)(C)C)cc1)C(C)C (centres undefined)
1.1%	-6%	-13%	nt	Cn1cc(CCC(=O)N2CCCC(N3CCN(c4ccccc4F)CC3)C2)cn1 (centres undefined)
2.1%	17%	?	16	COc1ccccc1CNCC(O)Cn1c2ccccc2c2ccccc21 (centres undefined)
0.1%	8%	-30%	nt	O=C(Nc1ccc(S(=O)(=O)Nc2cnc3ccccc3n2)cc1)c1ccc([N+](=O)[O-])cc1Cl
-1.0%	9%	-7%	-6	COc1ccc(OC)c(S(=O)(=O)Nc2ccccc2F)c1
?	10%	-3%	5	CC1CC(NS(=O)(=O)c2cccs2)CC(C)(C)C1 (centres undefined)
-2.0%	3%	-1%	9	CCC(c1c(C)[nH]oc1=O)c1c(C)[nH]oc1=O
-1.2%	5%	-4%	-2	CCC(Sc1ccc2nnc(-c3ccc(OC)c(OC)c3)n2n1)C(=O)O (centres undefined)
-2.3%	-12%	-21%	nt	CC1(C)Cc2c(cnn2-c2ccc(F)cc2)C(NC(=O)CCn2cncn2)C1 (centres undefined)
1.5%	-10%	1%	nt	O=C(CNC(=O)c1ccc(Br)cc1)NCc1cccnc1
0.9%	-13%	nt	nt	CCN(CC)CCOCCn1c(C)ccc1C
?	4%	1%	7	CN1/C(=C/C2CC(=O)NC2=O)C(C)(C)c2ccccc21 (centres undefined)

More results follow:
Rango complex inh	Rango release inh	miR-21 reporter	GLA inh pH 4.5	smiles
0.6%	0%	-8%	nt	COc1ccc(Br)cc1/C=N/n1c(COc2ccccc2)n[nH]c1=S
2.5%	-9%	8%	-6	CCS(=O)(=O)N1CCN(c2ccc(C(=O)N3CCOCC3)cc2[N+](=O)[O-])CC1
4.8%	-17%	1%	nt	Cc1cccc(C)c1OCCN1CCOCC1
?	23%	-11%	0	CCCc1ccc(NS(=O)(=O)c2c(C)oc(C)c2C(=O)OC)cc1
1.0%	0%	-7%	-1	CCOc1cc(C(=O)Nc2cc(=O)n(C)c(=O)n2C)cc(OCC)c1OCC
3.6%	8%	0%	-1	CCN(CC)CCn1c(=S)[nH]c2cc(Cl)ccc2c1=O
?	?	6%	-7	N#C/C(=C\c1cccnc1)c1nc2ccccc2[nH]1
3.5%	-12%	-2%	-4	Cc1ccc(Oc2ccccc2/C=C/C(=O)O)cc1
1.8%	0%	0%	0	Cc1ccc(-c2nc(C3CCN(S(=O)(=O)c4ccc(C(C)(C)C)cc4)CC3)no2)cc1
-0.2%	2%	-4%	-10	O=C(O)/C=C\C(=O)Nc1cc(O)ccc1[N+](=O)[O-]
-0.3%	10%	nt	nt	O=C(Nc1cccc(S(=O)(=O)N2CCCCCC2)c1)C1CCC1
3.4%	1%	3%	-24	CCNC(=S)N1CCC(c2nc3ccccc3s2)CC1
-1.7%	13%	-2%	2[21.1 µM]	CCOC(=O)CSc1nc2cc(C(=O)N3CCC(C(N)=O)CC3)ccc2c(=O)n1C1CCCCC1
5.3%	-6%	-16%	-2	CC(=O)c1cccc(NC(=O)c2ccc(OC3CSC3)cc2)c1
?	?	-7%	?	CC(=O)N=c1c(C#N)cc2c(=O)n3cccc(C)c3nc2n1CCCOC(C)C

(cont.)
Rango complex inh	Rango release inh	miR-21 reporter	GLA inh pH 4.5	smiles
1.8%	7%	-33%	-27	COc1cc(/C=N/NC(=O)c2ccccc2)ccc1O
1.4%	-7%	-7%	-2	O=Cc1c(N2CCC3(CC2)OCCO3)nc2ccccn2c1=O
0.8%	-2%	-1%	-4	CN(C)c1ccc(C(c2ccc(N(C)C)cc2)c2ccc([N+](=O)[O-])cc2)cc1
-1.0%	17%	0%	nt	CN(Cc1ccc(C(F)(F)F)cc1)C(=O)c1ccc(Oc2ccccc2)cc1
-0.3%	-25%	nt	nt	CCn1c(NCc2c[nH]c3ccccc23)nc2ccccc21
0.6%	-16%	11%&9%	-5	COc1ccc(-c2nc(CCNC(=O)c3ccc(Br)o3)cs2)cc1
4.5%	3%	12%	1	O=C(NC(=S)Nc1ccc(Oc2ccc(Cl)cc2)cc1)c1ccccc1
6.8%	21%	2%	nt	CN(Cc1ccco1)S(=O)(=O)c1cc(F)ccc1CN1C(=O)c2cccnc2C1=O
9.0%	0%	-8%	6	COc1ccc(C2=NN(C(=O)CN3CCCC3)C(c3ccc(OC)cc3)C2)cc1 (centres undefined)
?	?	-3%	5	Cc1ccc(C(=O)c2oc3ccccc3c2NC(=O)c2cc(-c3cc(C)ccc3O)n[nH]2)cc1
?	0%	nt	nt	O=C(CCc1nc2sc3c(c2c(=O)[nH]1)CCCC3)NCCc1ccccc1
0.2%	-1%	0%	-17	CCOc1ccc(Br)cc1S(=O)(=O)Nc1ccccc1N1CCOCC1
?	-14%	-5%	-10	O=c1[nH]c(-[n+]2ccccc2)c(/C=N/NC([S-])=Nc2ccccc2)s1
-0.4%	35%	-62%	4	CCOc1ccc(N=C(C)C2=C(O)c3ccccc3C2=O)cc1
-1.6%	1%	-19%	nt	COc1ccccc1N=NC1C(=O)N(C(N)=S)N=C1C (centres undefined)

(continued)
Rango complex inh	Rango release inh	miR-21 reporter	GLA inh pH 4.5	smiles
-3.7%	17%	-2%	2	O=C(Nc1nc(-c2cc(Cl)sc2Cl)cs1)c1ccc(Br)s1
-4.4%	-1%	-20%	4	OC(COCCC12CC3CC(CC(C3)C1)C2)CN1CCCC1 (centres undefined)
-0.5%	-4%	21%&16%	nt	COc1ccc(CNC(=O)C2CCCN(S(=O)(=O)c3ccc4c(c3)CCCN4C(C)=O)C2)cc1 (centres undefined)
0.1%	0%	nt	nt	O=S(c1ccccc1)C(c1ccccc1)c1ccccc1 (centres undefined)
-0.6%	-19%	0%	-2	COc1ccc(CC2NCCC3(O)CCCCC23)cc1 (centres undefined)
-0.7%	18%	-5%	nt	CC(=O)c1ccc(N(C(=O)CNC(=O)c2ccco2)C(C(=O)NC2CCCC2)c2ccncc2)cc1 (centres undefined)
5.0%	-10%	22%	2	Cc1ccc(NC(=O)COc2ccc(-n3ccnc3)cc2)cc1Cl
0.6%	-13%	nt	nt	COCCS(=O)(=O)N(Cc1ccccc1)[C@H](C(=O)OC)C(C)C
